# Screens from PubChem BioAssay.
# NPR1 antag: Natriuretic polypeptide receptor (hNpr1) antagonism - Primary qHTS; 76,000 compounds, 1.6% hits; HEK293 hNpr1 GloSensor cGMP, ANP-stimulated luminescence; Potency, µM (doses to about 46.3 µM), without a hit: at the top dose activity change, negative = inhibition, actives largely listed as inhibitors; Atrial natriuretic peptide receptor 1 (Homo sapiens), P16066; active = well fitted inhibition curve with a large enough effect; inconclusive = small, poorly fitted or top-dose-only effect; inactive = no such curve, though single readings can be large or run the other way;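 further: nearly all actives have a fitted effect of over 60% in size; nearly all hits also lower the signal before the agonist is added; a reference antagonist and vehicle were the controls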
# Target sequence (P16066 whole entry, looked up): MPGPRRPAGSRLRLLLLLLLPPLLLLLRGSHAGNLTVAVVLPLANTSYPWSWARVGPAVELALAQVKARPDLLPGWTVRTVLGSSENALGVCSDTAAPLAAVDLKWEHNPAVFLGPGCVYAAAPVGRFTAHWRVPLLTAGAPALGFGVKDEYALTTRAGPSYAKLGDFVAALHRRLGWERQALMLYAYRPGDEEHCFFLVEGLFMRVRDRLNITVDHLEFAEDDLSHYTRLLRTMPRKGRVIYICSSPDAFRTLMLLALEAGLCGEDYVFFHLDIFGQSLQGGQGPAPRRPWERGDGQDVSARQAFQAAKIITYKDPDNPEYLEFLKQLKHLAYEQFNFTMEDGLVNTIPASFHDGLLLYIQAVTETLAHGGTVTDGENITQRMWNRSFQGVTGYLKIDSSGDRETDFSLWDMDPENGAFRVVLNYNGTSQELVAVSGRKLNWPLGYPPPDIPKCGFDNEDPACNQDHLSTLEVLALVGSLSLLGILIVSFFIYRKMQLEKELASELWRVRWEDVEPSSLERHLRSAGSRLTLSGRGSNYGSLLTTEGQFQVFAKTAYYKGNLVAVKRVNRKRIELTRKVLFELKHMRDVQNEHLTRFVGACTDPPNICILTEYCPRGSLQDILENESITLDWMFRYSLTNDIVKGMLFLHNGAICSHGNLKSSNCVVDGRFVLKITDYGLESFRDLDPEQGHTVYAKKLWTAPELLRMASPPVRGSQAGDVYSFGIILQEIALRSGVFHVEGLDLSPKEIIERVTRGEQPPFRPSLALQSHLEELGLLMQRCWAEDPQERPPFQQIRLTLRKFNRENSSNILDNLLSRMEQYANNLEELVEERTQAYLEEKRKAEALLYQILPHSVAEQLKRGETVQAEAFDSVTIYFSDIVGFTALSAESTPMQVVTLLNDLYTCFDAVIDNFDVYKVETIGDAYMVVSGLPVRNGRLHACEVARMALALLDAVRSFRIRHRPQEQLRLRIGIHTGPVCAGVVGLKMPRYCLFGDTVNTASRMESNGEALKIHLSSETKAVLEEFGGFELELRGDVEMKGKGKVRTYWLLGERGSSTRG
#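 Compound pre-incubated 30 min at room temperature on GloSensor-loaded HEK293 cells stably carrying hNpr1 and the pGS-40F cGMP biosensor. Stimulation uses hNppA at 0.1 nM final; luminescence is taken at baseline and 20 min post-agonist.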
# * = called active by the depositor; u = inconclusive; [ ] = dose if it differs, or a comment. On the % scale 0 is the no-effect control and ±100 the full control effect; potency means the concentration at half of the fitted maximal effect. An excerpt; rates above refer to the full screens.
SMILES,NPR1 antag
CCOc1ccccc1CN1CCC2(CCN(C(=O)c3ccc(C)cc3)CC2)Oc2ccccc21,0%
Cc1cc(CC(=O)N2CC[C@@H](NC(=O)c3ccccn3)[C@H](O)C2)on1,2%
CCOc1cccc(CN2CCCC(COc3ccccc3C(=O)N3CCCCC3)C2)c1 (stereo unspecified),-13%
O=C(NCc1ccccc1)N1CCN2C(=O)N(C3CCOCC3)C[C@H]2C1,4%[70.6 µM]
Cc1cnc(C(=O)N2CCCCCCn3c(nnc3-c3ccc(F)cc3)CC2)cn1,-2%
CCOc1cccc(CNC(=O)C23CCCC=C2N(CCOC)C(=O)CC3)c1 (stereo unspecified),-12%
O=S(=O)(Cc1noc([C@@H]2C[C@@H](O)CN2CC2CC2)n1)c1ccc(F)cc1,2%[70.6 µM]
Cc1[nH]c2c(F)cccc2c1CC(=O)NC(c1cnn(C)c1)C1CC(O)C1 (stereo unspecified),-2%
Cc1ccc(C(=O)NC2CCN(c3cnn(CC4CC4)c(=O)c3)CC2)c(C)c1,2%
CO[C@@H]1COCC[C@H]1NC(=O)CCSc1ccc2c(c1)OCCO2,3%
Cc1noc([C@@H]2CN(Cc3cccnc3)C[C@H]2CO)n1,3%
CNC(=O)[C@H]1C[C@H](Oc2ccccc2)CN1C(=O)c1ccc(Cc2c(C)noc2C)o1,4%
CN1CCC2(CC1)CN(C(=O)Nc1ccccc1)Cc1ccccc1O2,-10%
O=C(CCC1CCN(C(=O)c2ccccc2)CC1)NCCCN1CCCc2ccccc21,-29%
CC(C)CCN1CCC(N2CCN(C(=O)c3ccccc3Br)CC2)C1=O (stereo unspecified),2%
CCNC(=O)NC[C@@H]1C=C(C)[C@H](CC(=O)N2CCN(C(C)=O)CC2)C[C@H]1C(C)C,3%[70.6 µM]
COc1ccc2[nH]c3c(c2c1)CCNC31CCN(C(=O)c2cc(C)[nH]n2)CC1,7%
COc1ccc(C(=O)Nc2ccc([C@H]3OCC(=O)N(C)[C@@H]3CO)cc2)cc1,1%[70.6 µM]
Cc1nn(C(=O)CCCC(=O)N2CCC(Cc3nncn3C)CC2)c2ccccc12,1%
O=C(NC1CCN(c2cc(-c3cccs3)[nH]n2)C1)c1ccc(Br)cc1 (stereo unspecified),-12%
COc1ccc(C(=O)N2CCC3(CC2)N(CC2CC2)C(=O)CS3=O)cn1 (stereo unspecified),2%
COc1ccc(CN2CCC3(COC(=O)N3Cc3ccccn3)C2)cn1 (stereo unspecified),-3%[70.6 µM]
O=C(CCC1CCN(C(=O)c2ccccc2)CC1)Nc1ccc(F)c(F)c1,u
CCc1nc(-c2c3n(c(=O)n(CC(=O)Nc4cc(C)ccc4C)c2=O)CCCCC3)no1,-16%
COCCNC(=O)CCC1CCN(C(=O)c2ccccc2Cl)CC1,5%
CN1C[C@@H]2CCCN3CCC[C@@H]([C@H]23)[C@H]1CCCC(=O)NCCN1CCCC1,6%
COCCn1nnnc1C1CC2(CCOCC2)C(=O)N1Cc1ccc(F)cc1 (stereo unspecified),1%
Cc1cnc(C(=O)NC2C[C@H]3CC[C@@H](C2)N3C(=O)COc2ccccc2)cn1 (stereo partly specified),2%
Cc1cc(C)cc(NC(=O)C2CC(=O)N(c3n[nH]c4cccc(F)c34)C2)c1 (stereo unspecified),8%
Cn1cc(CN2C[C@H](C(=O)Nc3ccccc3)C[C@H]2c2cccc(C(F)(F)F)c2)cn1,1%[70.6 µM]
CC(=O)Nc1cccc(-c2ccc3ncn(Cc4ccccn4)c(=O)c3n2)c1,-6%[70.6 µM]
CN1C(=O)C(CC(=O)Nc2cccnc2)=C2CCCCC21 (stereo unspecified),-9%
CN(C)[S+](=O)([O-])c1ccc2c(c1)OCCN(Cc1ccccc1F)C2,-10%[70.6 µM]
CCOc1ccc(CC(=O)N2CCC(n3cc(-c4nc(-c5ccccc5)no4)nn3)C2)cc1 (stereo unspecified),u
O=C(CCC1CCCN(Cc2cn[nH]c2-c2ccc(F)cc2)C1)Nc1ccccc1F (stereo unspecified),-1%
COc1ccc(CNC(=O)CC[C@H]2CNC(=O)[C@@H]3[C@@H](CCN3C3CCCCC3)N2C)cc1,3%
c1ccc(-c2cnc(Nc3ccc4c(c3)OCCO4)c3c2CCO3)cc1,u
CS(=O)(=O)N1C[C@H]2CCN(Cc3ccc(F)cc3F)C[C@H]21,-1%
CCC(C(=O)N1CCc2onc(-c3ccc(F)c(F)c3)c2C1)n1cccn1 (stereo unspecified),-3%
Cc1noc([C@@H]2CC(F)(F)CN2C(=O)c2ccc3nc[nH]c3c2)n1,5%
CN(C(=O)CN1C(=O)NC2(CCOCC2)C1=O)C1CCCCC1,24%
COCc1nc(C2CCCN(C(=O)CC3CCCC3)C2)no1 (stereo unspecified),-4%
CN(Cc1ccc(-c2ccccc2)cc1)C(=O)c1ccc(F)cc1,-9%[70.6 µM]
Cc1ccc(C(=O)N2CCC(c3nn(Cc4ccccc4)c(=O)[nH]3)CC2)cc1,30%
CN1[C@@H](CCC(=O)NCc2cccs2)CNC(=O)[C@@H]2[C@H]1CCN2Cc1csnn1,1%[70.6 µM]
Cc1noc(-c2cn(C3CCN(C(=O)c4cc(Cl)ccc4F)C3)nn2)n1 (stereo unspecified),3%
CSc1cccc(NC(=O)C2CCCN(c3cnc4nc(C)c(C)nc4c3)C2)c1 (stereo unspecified),3%
CNC(=O)[C@@H]1CN(C(=O)c2nn(C)c3ccccc23)C[C@H]1c1n[nH]c(C)n1,3%
COc1ccc(CNC(=O)[C@@H](C)C2CC[C@@]3(C)CC[C@H](NC(=O)C4CC4)[C@@H](C)[C@@H]3[C@H]2O)cc1 (stereo partly specified),-2%
Cc1nnc2n1CCC(N(C)S(=O)(=O)c1ccccc1F)CC2 (stereo unspecified),-7%
O=C1C(OCC2CC2)C2(CCCCC2)N1C1CCN(Cc2cccnc2)CC1 (stereo unspecified),4%
CC(C)NC(=O)NC[C@H]1O[C@@H](CC(=O)NCCN(C)C)[C@H](O)[C@@H]1O,3%[70.6 µM]
CCc1ccc(C(=O)N2c3ccccc3CC2c2nc(C3CC3)no2)cc1 (stereo unspecified),u
CC(C)c1nc2c(c(-c3ccc(O)cc3)n1)CN(C(=O)N(C)C)CC2,0%
COc1ccccc1C(=O)NCc1c[nH]c2ncccc12,4%[70.6 µM]
CCCc1nc(C(=O)NC(C)c2nncn2CCOC)cs1 (stereo unspecified),5%
O=C(NC1CCCC1)C1(CCO)CC12CCOCC2 (stereo unspecified),3%
Cc1cccc(C(=O)N2C[C@@H](F)C[C@H]2C(=O)N2CCCCC2)c1,2%
Clc1ccc(C2Cn3nnc(-c4nc(-c5ccccc5Br)no4)c3CO2)cc1 (stereo unspecified),1%
O=C(Cc1ccccc1C(F)(F)F)N1CCC2(CC1)[C@H](O)C[C@@H]2O,17%

# Arranged by heavy-atom count (high to low): some entries from above.
SMILES,NPR1 antag
COc1ccc(CNC(=O)[C@@H](C)C2CC[C@@]3(C)CC[C@H](NC(=O)C4CC4)[C@@H](C)[C@@H]3[C@H]2O)cc1 (stereo partly specified),-2%
CNC(=O)[C@@H]1CN(C(=O)c2nn(C)c3ccccc23)C[C@H]1c1n[nH]c(C)n1,3%
Cc1noc(-c2cn(C3CCN(C(=O)c4cc(Cl)ccc4F)C3)nn2)n1 (stereo unspecified),3%
CC(C)c1nc2c(c(-c3ccc(O)cc3)n1)CN(C(=O)N(C)C)CC2,0%
COc1ccccc1C(=O)NCc1c[nH]c2ncccc12,4%[70.6 µM]

# (continued)
SMILES,NPR1 antag
O=C(NCCc1nc(Cc2ccccc2)no1)[C@H]1CCC[C@@H](O)C1,3%
O=C1CCCCCN1CCC(=O)N1CCn2nc(Cc3ccccc3)cc2C1,7%
Cc1ccc(CN2CCc3nc(C)nc(-c4ccc(O)cc4)c3C2)cc1,0%
O=C(C1CCOCC1)N1CCC(c2nc(C3CCOCC3)no2)C1 (stereo unspecified),0%
NC(=O)CCNC(=O)[C@@]1(O)C[C@@H](O)[C@H](O)[C@@H](NC(=O)c2ccc(F)c(Cl)c2)C1,7%[70.6 µM]
COCCOC1CCN(C(=O)c2ccc(OC)nc2)CC1,1%
COCc1ncc(CN2CCC(Cc3nncn3-c3ccccc3)CC2)cn1,0%
COc1ccc(C2(C(=O)NCCn3c(C)cnc3-c3cccnc3)CC2)cc1,-14%
COC(=O)c1cc2n(n1)CCCN(C(=O)COc1ccc(C)c(C)c1)C2,-1%
CCOCCOC1CCN(C(=O)NCc2ccc(F)cc2)CC1,3%
CN(C)C(Cn1cc(-c2cncnc2)nn1)c1ccccc1Cl (stereo unspecified),1%
COCC(=O)N(C1CCOCC1)C1CCN(C(=O)Cc2ccccc2F)CC1,3%
COc1ccccc1CCC(=O)N1CCC[C@H]1c1nc(-c2ccccc2)no1,-3%
CC(C)(Oc1nn(Cc2cccc(Cl)c2)c2ccccc12)C(=O)NCc1cnccn1,-23%[70.6 µM]
O=C(N[C@H]1[C@H](O)[C@H](O)C[C@@H]1c1ccc(C(F)(F)F)nc1)c1cc2ccccc2s1,1%[70.6 µM]

# In the list so far, these have a CF3 group:
SMILES,NPR1 antag
Cn1cc(CN2C[C@H](C(=O)Nc3ccccc3)C[C@H]2c2cccc(C(F)(F)F)c2)cn1,1%[70.6 µM]
O=C(Cc1ccccc1C(F)(F)F)N1CCC2(CC1)[C@H](O)C[C@@H]2O,17%
O=C(N[C@H]1[C@H](O)[C@H](O)C[C@@H]1c1ccc(C(F)(F)F)nc1)c1cc2ccccc2s1,1%[70.6 µM]

# Other structures follow:
SMILES,NPR1 antag
COc1ccc(CN2Cc3[nH]cnc3C[C@H]2C(=O)NCc2ccc(Cl)cc2)c2ccccc12,u
O=C1CC2(CCN(c3nc(-c4ccccc4)nc4c3CCC4)CC2)CN1,-3%
COCCC(=O)N1CC(c2nnc(-c3ccc(C)cc3)o2)C2(CCOCC2)C1 (stereo unspecified),3%
CCN(CC)Cc1cnc2c(C(=O)Nc3ccc(Cl)cc3C)cnn2c1,-1%
CN(CC1CCOC1)C(=O)NC1CCCC1 (stereo unspecified),2%
CCOc1ccc(S(=O)(=O)N2C[C@@H](F)C[C@H]2C(=O)N2CCc3ccccc3C2)cc1,-6%
CNC(=O)c1noc([C@@H]2CC(F)(F)CN2C(=O)C2CCCC2)n1,0%
Cc1ccccc1-n1nc(-c2c(C)nc3scc(CC(=O)N4CCCC4)n3c2=O)cc1C,-1%
COCCNC(=O)c1nc(-c2cccnc2)c2cnccn12,5%[70.6 µM]
CCCNC(=O)NCCc1noc(-c2cccnc2)n1,-15%
C[C@H](C(=O)N(C)CCC#N)C1CC[C@@]2(C)Cc3sc(NC(=O)C4CC4)nc3[C@@H](C)[C@@H]2[C@H]1O (stereo partly specified),-11%
Cc1ccc(C(=O)N2C(C(=O)N3CCCC3)COC23CCN(C(=O)c2ccc(F)cc2)CC3)cc1 (stereo unspecified),4%
O=C(O)c1cc2c(s1)CCN(C(=O)c1ccccc1)C2,0%
Cc1ccccc1-n1ncc(C(C)NC(=O)c2cn[nH]c2-n2cnnn2)c1C (stereo unspecified),3%
O=C(Nc1cc(F)ccc1F)N1CCOc2ccc(CN3CCc4ccccc4C3)cc2C1,u

# Random excerpt: 4 records from the list
SMILES,NPR1 antag
COCc1ncc(CN2CCC(Cc3nncn3-c3ccccc3)CC2)cn1,0%
COc1ccc(CNC(=O)CC[C@H]2CNC(=O)[C@@H]3[C@@H](CCN3C3CCCCC3)N2C)cc1,3%
Cc1noc(-c2cn(C3CCN(C(=O)c4cc(Cl)ccc4F)C3)nn2)n1 (stereo unspecified),3%
O=C(NCc1ccccc1)N1CCN2C(=O)N(C3CCOCC3)C[C@H]2C1,4%[70.6 µM]

# Next part.
SMILES,NPR1 antag
Cc1nccn1CC(=O)N1C[C@@H](COCC2CC2)[C@H](c2ccncc2)C1,9%
Cc1ccc(CN2CC[C@H]3C(=O)NCCCCCCN(Cc4ccncc4)[C@@H]3C2)o1,-1%
Cc1ncc(CC(=O)N2C[C@@H](C(=O)O)[C@H](C3CC3)C2)c(=O)[nH]1,0%
O=C(c1ccco1)N1CC(F)(F)C[C@H]1c1nc(-c2ccncc2)no1,0%
COc1ccc(CNC(=O)CC[C@H]2CNC(=O)[C@@H]3[C@@H](CCN3Cc3cccs3)N2C)cc1,1%
O=C1NCCOCCCN(C(=O)Nc2ccccc2)[C@H]2CCC[C@@H]12,3%
O=C(N[C@H](Cc1ccccc1)C1CC(O)C1)c1ccc2nccn2c1 (stereo partly specified),6%
Cc1noc(C2CC3(CCN(C(=O)CC4CCCC4)CC3)CN2C)n1 (stereo unspecified),-3%
CC(=O)N1CCC(C2CCN(Cc3ccccc3C)C2)CC1 (stereo unspecified),9%
COCc1nnc2n1CCC(NC(=O)c1ccco1)CC2 (stereo unspecified),-2%
COc1cccc(C(=O)NCCn2ccn3nc(-c4ccc(C)cc4C)cc3c2=O)c1OC,-5%
COc1ccc(N2CC(C(=O)NCCCc3ccccc3)NC2=O)cc1 (stereo unspecified),0%
CC(C)CNc1ccc2c(n1)C(C)(C(=O)NC1CCOCC1)CN(Cc1ccccc1)C2 (stereo unspecified),2%[70.6 µM]
Cc1noc(C)c1Cc1c(C(=O)NC2CCc3n[nH]c(=O)n3CC2)noc1C (stereo unspecified),2%
CN1C[C@@H](NC(=O)c2cncnc2)C[C@H]1c1nc(-c2cnccn2)no1,-3%[70.6 µM]
Cc1cc(C)c(OCC(=O)c2ccc3c(c2)N(CCCC(=O)N2CCOCC2)C(=O)CO3)c(C)c1,3%
COCCn1c(C(=O)OC)c(NC(=O)CC(C)C)c2cc(NC(C)CCn3cccn3)cnc21 (stereo unspecified),-1%
